Source: PubChem
Sa RN4220 lethal: kills Staphylococcus aureus RN4220. AID 1259311. S. aureus RN4220 growth, OD600, 16 h. inhibition, % (test concentration not listed). actives 0.33% (n = 330,000);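 active = z-score of -3 or lower and OD600 up to 0.18 on both plates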;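 note: plate controls were untreated cells for no effect and reference antibiotic for full effect; stock transfer was 100 nL into about 80 µL; one replicate is shown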
BJeLR lethal: BJeLR cell viability loss; actives 0.17% (n = 300,000); BJeLR (HRASV12) viability, CellTiter-Glo ATP luminescence, 48 h; reference of the scale not given here; inhibition, % (no concentration beside the values);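 active = replicate mean above 50%; inconclusive = above 50% but judged a plate artefact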;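 note: 50 nL library stock added to about 25 µL; numbers are from one replicate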
Mtb hypoxia inh: Mtb hypoxia fluorescent reporter inhibition. M. tuberculosis hypoxia-regulated fluorescent reporter, fluorescence. fluorescence inhibition, % (concentration not given with the values). actives 0.1% (n = 300,000). AID 1159583;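 active = 35 to 45% if threefold the growth effect, above 45% if 1.5-fold the growth effect; inactive = the rest, general growth blockers included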;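 note: wells of about 50 µL received 100 nL stock; 0% = vehicle wells and 100% = reference inhibitor wells; whole bacteria with a GFP reporter of the hypoxia response; strong numbers were not always called active; many hits fall short of the cut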
Autofluor counter: compound fluorescence in toxin protease inhibitor counterscreen; compound autofluorescence counterscreen, microsphere flow cytometry; stronger effect = higher value; fluorescence intensity (no concentration beside the values); actives 3.1% (n = 360,000);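 active = at least 3 SD above the mean of all compounds, about 16000 in these data; inconclusive = too few beads counted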;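 note: 100 nL of 1 mM stock went into each well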
PrP UTR inh: inhibition of PrP 5' UTR reporter expression. cell-based PrP 5' UTR mRNA reporter, plate reader. actives 0.35% (n = 340,000). inhibition, % (concentration not given with the values);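 active = every replicate at 50% or more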;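 note: 0 = median of the neutral control wells; tested in H4 reporter cells; numbers are from one replicate; inactives centre near -14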
Sa ugtP lethal: growth inhibition of S. aureus ugtP deletion strain | actives 0.54% (n = 330,000) | S. aureus RN4220 ugtP deletion, OD600 growth, 16 h; some inactives read as strong as hits | growth inhibition, % (test concentration not listed);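 active = z-score under -3 and OD600 up to 0.15 on both plates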;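 note: plate controls were untreated wells for no effect and antibiotic for full effect; wells of about 80 µL received 100 nL stock; the first replicate is given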
Mtb hypoxia inh growth: also measured in Mtb hypoxia inh; calls as there; growth inhibition, %; measured here: M. tuberculosis growth (absorbance);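 0% = vehicle and 100% = reference antibiotic; read after six days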
Active calls of the source: *; u = inconclusive; x = not tested or not shown.

SMILES | Sa RN4220 lethal | BJeLR lethal | Mtb hypoxia inh | Mtb hypoxia inh growth | Autofluor counter | PrP UTR inh | Sa ugtP lethal
O=C(O)C1CCCN1C(=O)Nc1ccccc1 (configuration not stated) | 0.2 | -13 | x | x | 4841 | -18 | -9
N#Cc1ccccc1Cn1c(=O)n(CCC(=O)NCc2ccco2)c(=O)c2ccccc21 | 4.6 | -2 | 5 | 8 | 7492 | -8 | 0
O=C(CNC(=O)c1ccc(N2C(=O)c3ccccc3C2=O)cc1)OCC(=O)c1ccccc1 | 6.2 | 3 | 3 | 7 | 2132 | -17 | -2
O=S(=O)(Nc1ncccn1)c1cc(Cl)ccc1Cl | 3.1 | 8 | 10 | 15 | x | 1 | 9
NC(=O)NN=Cc1c(F)c(F)c(F)c(F)c1F | -1.3 | x | -2 | 13 | x | x | 1
O=C(Cn1ccc2ccccc2c1=O)NCCC(=O)NC1CCN(Cc2ccccc2)CC1 | 0.9 | 4 | x | x | 5232 | -10 | 4
O=C(Nc1ccccc1)/C(=C/c1cccnc1)NC(=O)c1ccccc1 | 8.2 | 0 | 4 | 2 | 5540 | -12 | -2
O=C(C1=C[C@@H](C2CC2)C[C@@H](OCCCCO)O1)N1CCN(Cc2ccccc2)CC1 | x | 13 | x | x | 2980 | -3 | x
COc1ccc(C=NNC(=O)c2ccccc2O)cc1Cn1nnc2ccccc21 | 2.6 | x | 6 | 0 | x | x | -1
C/C(=N\NC(N)=O)c1ccc(Cl)cc1 | x | 15 | x | x | 3071 | -6 | x
Cc1ccc(N/N=C/c2c(O)n(-c3ccccc3)c(=O)[nH]c2=O)cc1 | 1.9 | 14 | 1 | 5 | 3746 | -20 | -4
Br/C(C=NN1CCN(c2ccccc2)CC1)=C\c1ccccc1 | -0.1 | x | -7 | -3 | x | x | 7
O=C(c1ccc(Cl)cc1)C1CCCN(Cc2cccc3cccnc23)C1 (configuration not stated) | 0.3 | 11 | 7 | 7 | 5346 | -17 | 2
O=C(CN1CCN(c2ccc(Cl)cc2)CC1)NCc1cccs1 | -1.5 | -2 | -2 | 7 | 2086 | -20 | 11
c1ccc(CNc2nc(-c3cccnc3)nc3ccccc23)cc1 | -0.2 | 1 | 12 | 10 | 3393 | -2 | -12
Cc1ccc(CNC(=O)c2cc(-c3ccccc3C)n(CC3CC(c4cccc([N+](=O)[O-])c4)=NO3)n2)cc1 (configuration not stated) | 1.4 | x | 6 | 9 | 4222 | -31 | 1
Cc1ccc(-c2[nH]nc(N)c2N=Nc2ccccc2C)cc1 | 12 | -15 | 7 | 6 | 3017 | -21 | 79
Cc1cc(Cl)ccc1C(=O)C1CCCN(C(=O)CCn2cncn2)C1 (configuration not stated) | 3.1 | 2 | 7 | 2 | x | -7 | 13
Cn1cnc2c1c(=O)n(Cc1cccc(Cl)c1)c(=O)n2C | 4.6 | -4 | 13 | 12 | 4259 | 0 | 6
O=C(CN1C(=O)c2ccccc2C1=O)Nc1ccc2c(c1)OCO2 | 4.6 | 6 | 10 | 4 | 9943 | x | 2

4 entries picked at random from the list so far, as already listed:
SMILES | Sa RN4220 lethal | BJeLR lethal | Mtb hypoxia inh | Mtb hypoxia inh growth | Autofluor counter | PrP UTR inh | Sa ugtP lethal
O=C(CN1C(=O)c2ccccc2C1=O)Nc1ccc2c(c1)OCO2 | 4.6 | 6 | 10 | 4 | 9943 | x | 2
Cc1ccc(-c2[nH]nc(N)c2N=Nc2ccccc2C)cc1 | 12 | -15 | 7 | 6 | 3017 | -21 | 79
Cc1ccc(N/N=C/c2c(O)n(-c3ccccc3)c(=O)[nH]c2=O)cc1 | 1.9 | 14 | 1 | 5 | 3746 | -20 | -4
O=C(CN1CCN(c2ccc(Cl)cc2)CC1)NCc1cccs1 | -1.5 | -2 | -2 | 7 | 2086 | -20 | 11

More entries
SMILES | Sa RN4220 lethal | BJeLR lethal | Mtb hypoxia inh | Mtb hypoxia inh growth | Autofluor counter | PrP UTR inh | Sa ugtP lethal
Cc1cccc(NC(=S)NN=C2CCCCc3ccccc32)c1 | -0.7 | x | -2 | -8 | x | x | 19
COc1ccccc1/C=N/NC(=O)CNC(=O)c1ccc(S(=O)(=O)N(C)C)cc1 | x | 0 | x | x | 2061 | -19 | x
Cc1noc(C)c1C(=O)OC(C)C(=O)Nc1ccc(S(=O)(=O)NC(C)C)cc1 (configuration not stated) | 3.1 | -3 | 4 | 3 | 2391 | -17 | 2
COc1ccc(C(=O)NCC(=O)N/N=C/C=C/c2ccccc2)cc1OC | x | 0 | x | x | 2484 | -6 | x
CCOc1cc(-c2nc(-c3cc(OC)c(OC)c(OC)c3)no2)cc(OCC)c1OCC | 0.5 | 22 | x | x | x | x | 6
Cn1c(CCNC(=O)c2ccccc2F)nnc1SCC(=O)Nc1nncs1 | 2.9 | -14 | -16 | -3 | 5781 | -24 | 3
C=CCn1c2ccccc2c(=O)c2cc(C#CC3(O)CCCCC3)ccc21 | -6.1 | 8 | -2 | -1 | 3051 | -99 | -5
O=C(CCCCCCCC(=O)NCC1CCCO1)NCC1CCCO1 (configuration not stated) | 4.5 | 5 | 3 | 3 | u | -9 | 13
CCCOc1cccc(C(=O)Nc2cc(NC(=O)c3ccco3)ccc2OC)c1 | 1.0 | 1 | 12 | 10 | 3535 | 6 | 10
O=C(NC1CCCCCCC1)c1ccc(F)c(S(=O)(=O)N2CCOCC2)c1 | -8.3 | x | -7 | -7 | 3549 | -18 | -14
COc1cc(C)ccc1OCCOCCN(C)Cc1ccccc1 | 4.6 | -15 | 16 | 6 | 2262 | -19 | 2
COc1ccc(CN2CCNC(=O)C2CC(=O)NC2CCCCCC2)c(C)c1C (configuration not stated) | 4.1 | 1 | 11 | 2 | 5962 | -2 | 7
COCCNC(=S)N(C)C1(c2ccccc2Cl)CCCCC1=O (configuration not stated) | 12 | 2 | 13 | 8 | 3412 | -5 | 8
COc1ccc(C(=O)Oc2cc(C)c(CN3CCOCC3)cc2C)cc1OC | 1.7 | 1 | 6 | -3 | 3972 | -15 | 10
Cc1noc(C)c1CNCc1ccccc1 | 3.1 | -11 | 0 | 2 | 3422 | -25 | 10
COc1ccc(-c2noc(-c3cccc(Cl)c3)n2)cc1OC | 5.4 | 12 | -5 | 3 | 2404 | -65 | -13
CC(C)(C)OC(=O)N1CCC(CC2CC(c3cccc(Br)c3)=NO2)(C(=O)O)CC1 (configuration not stated) | 1.9 | -6 | -3 | 10 | 3598 | -5 | -2
C#CCOCCOCCOCCNc1nc(N2CCN(C(=O)C([C@@H](C)O)n3cc([C@@H](N)CCCCN)nn3)CC2)nc(N2CCN(C(=O)[C@H](CCC(=O)O)n3cc([C@@H](N)[C@H](C)CC)nn3)CC2)n1 (some centres not stated) | 2.0 | x | -10 | 0 | 3914 | 7 | 0
CC(C)n1nc(Cc2cccc3ccccc23)c(C#N)c1N | 3.2 | -8 | 7 | 1 | 4302 | -12 | 3
CCOC(=O)N1CCN(C(=O)/C=C/c2c(C)nn(-c3ccc(F)cc3)c2Cl)CC1 | x | -19 | x | x | 4195 | -20 | x
COc1ccnc(Oc2ccc(F)cc2)c1C(=O)N/C=N/OCc1ccc(Cl)cc1Cl | 0.6 | -4 | 8 | 2 | 11798 | -11 | -43
Cc1ccc(CC2SC(N=C(N)N)=NC2=O)cc1 (configuration not stated) | -3.5 | 4 | 16 | 9 | 4242 | -22 | 8
O=C(COc1ccccc1[N+](=O)[O-])NCC1COc2ccccc2O1 (configuration not stated) | 2.9 | x | -7 | 3 | 3965 | 1 | -3
CCOC(=O)CSc1nc2sc3c(c2c(=O)n1-c1ccccc1)CCN(C(C)C)C3 | 0.9 | -27 | 10 | 7 | 5608 | -15 | 2
OC(C#CCN1CCOCC1)c1cccs1 (configuration not stated) | 0.1 | 2 | -3 | 1 | 10000 | -27 | -1
CC(C)(C)C(=O)NC(=S)Nc1cc(C(F)(F)F)ccc1N1CCOCC1 | -14 | -6 | 5 | 3 | 3145 | -23 | -5
COc1ccccc1OCCC(=O)OCC(=O)NCc1ccc(Cl)cc1 | 11 | 6 | 11 | 0 | 4508 | -19 | 11
N=C1C(c2nc(-c3ccc(F)cc3)cs2)=C(O)CN1CCCN1CCOCC1 | 4.1 | 1 | 11 | 8 | 2985 | -8 | 2
COc1cccc2c1OCCC2=NNC(=O)C(C)Oc1ccc([N+](=O)[O-])cc1 (configuration not stated) | 0.8 | x | 4 | 6 | x | x | -1
COc1cc(C(=O)Nc2cc(-c3ccccc3)[nH]n2)cc(OC)c1OC | -0.6 | 0 | 2 | 6 | 20197* | -2 | -11
CCCn1c(SCC(=O)c2cc(C)n(-c3ccc4c(c3)OCO4)c2C)n[nH]c1=O | 0.7 | 6 | 4 | -1 | 2396 | -5 | -7
O=C(CC1CC=CCCC(=O)OCC(Cc2ccccc2)NC1=O)NC(CO)Cc1ccccc1 (configuration not stated) | 7.4 | x | 3 | 2 | x | x | 1
CCC(C)NC(=O)COc1ccc(OCc2ccccc2)cc1 (configuration not stated) | -3.1 | -1 | 5 | 8 | 3957 | 1 | 7
COc1ccc2sc(-c3ccccc3OC)c(-c3ccc4c(c3)OCCO4)c2c1 | -2.9 | x | -8 | 4 | 3825 | -7 | 12
CCOC(=O)Cn1nnnc1CN(Cc1ccc(OC)cc1)Cc1cc2cc(C)ccc2[nH]c1=O | 4.3 | 2 | 3 | 5 | 6175 | -26 | 0
CC(C)OC(=O)c1nnn(-c2nonc2N)c1CSc1ccccn1 | 1.4 | -1 | x | x | 4549 | -5 | 12
CC(C)N(Cc1ccccc1)C(=O)COC(=O)/C=C/c1cnc2ccccc2n1 | 3.6 | -4 | -6 | -3 | 3257 | -21 | 12
Cc1cccc(OCC(O)CN2CCNCC2)c1 (configuration not stated) | 2.9 | -5 | 9 | 2 | 4132 | -28 | 0
COc1ccc(Cn2c(C)nnc2-c2cnn(C)c2N)cc1 | -1.1 | 1 | 1 | -4 | 4641 | -19 | 3
COc1cc2c(cc1OC)C(=O)N(C)CC2 | 0.6 | 4 | x | x | 5889 | -24 | 4
O=C(Cc1c(F)cccc1Cl)N1CCOCC1 | 0.9 | 1 | 9 | 5 | 3312 | -11 | 3
Cc1cccc(OCC(=O)Nc2ncn[nH]2)c1C | x | 2 | x | x | 4915 | -34 | x
Cc1ncc(CO)c2cc(-c3nnc(Nc4ccc5c(c4)OCO5)s3)c(=O)oc12 | 2.3 | -3 | 18 | 1 | 4229 | 8 | 0
CCCc1nnc(SCC(=O)N2CCCC2)n1CC1CCCO1 (configuration not stated) | -0.1 | 0 | x | x | 2937 | -16 | 0
O=C(CCC(=O)Nc1ccccc1)NNC(=O)c1cccs1 | 4.2 | 7 | 7 | 4 | 21744* | -16 | -4
CN1CCN(c2nc(-c3ccncc3)nc3ccccc23)CC1 | 3.6 | -2 | x | x | 3665 | 1 | 4
CN1CCN(CCC(=O)NN=Cc2cc3c(cc2[N+](=O)[O-])OCO3)CC1 | 1.3 | x | -7 | -9 | x | x | 5
Cc1ccc(C)c(N2CCN(S(=O)(=O)c3c(C)[nH]c(C)c3C(=O)N3CCCCC3)CC2)c1 | 0.3 | -10 | 1 | 15 | 5921 | -8 | -10
O=C(Nc1ccccc1)c1oc2ccccc2c1NC(=O)C1CC1 | 12 | -8 | 3 | 0 | 5562 | -8 | -7
CCCC(=O)Oc1ccc2c(C)cc(=O)oc2c1 | 2.2 | -4 | 4 | 5 | 2471 | -41 | 2
Additional results:
SMILES | Sa RN4220 lethal | BJeLR lethal | Mtb hypoxia inh | Mtb hypoxia inh growth | Autofluor counter | PrP UTR inh | Sa ugtP lethal
CCN(CC)P(=O)(Oc1ccccc1)Oc1ccccc1 | 2.4 | -5 | 13 | 4 | x | -13 | 2
COc1cc(C=NNC(=O)C(C)(C)O)ccc1OC/C=C/c1ccccc1 | 4.1 | x | 17 | 11 | x | x | 6
CCOC(=O)c1sc(NC(=O)c2sc(C)nc2C)nc1C | 0.1 | 3 | 16 | 9 | 3060 | 2 | 0
O=C(CCCCCCCCC(=O)N/N=C/c1ccco1)N/N=C/c1ccco1 | x | -9 | x | x | 2086 | -10 | x
CCOc1ccc(/C=C/C(=O)Nc2ccc(N3CCOCC3)cc2)cc1 | 0.2 | -1 | x | x | 4619 | 7 | 7
CCN(Cc1nc2ccccc2c(=O)[nH]1)Cc1nc2cc(OC)c(OC)cc2c(=O)[nH]1 | 8.3 | -7 | 2 | 1 | 6243 | -27 | -10
Cc1nnc(NCc2n[nH]c(=O)c3ccccc23)c2ccccc12 | 12 | 17 | -2 | 4 | 11199 | -1 | -14
CCN(C(=O)c1cc2cccc(OC)c2oc1=O)c1ccccc1 | -0.9 | -1 | x | x | 2074 | -13 | 5
